# High-throughput results from PubChem BioAssay.
# Six1-Eya2 inh: Six1/Eya2 interaction inhibition; AlphaScreen GST-Six1/His-Eya2 binding, biochemical; hits give low values; control for the full effect not named in the record; activity change, % (no concentration beside the values); AID 651725; 360,000 compounds, 0.56% hits; in the data active = activity change below about -65%; inconclusive = about -30% to -65%; inactive = above about -30%; also: % is scaled to controls: 0 for no effect and ±100 for the full control effect
#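 Compounds are tested against tagged Six1 and Eya2 proteins bridged by glutathione donor and nickel acceptor beads; after a one-hour incubation at 37 °C without light, AlphaScreen emission is recorded.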
# TRPML1 blocker: inhibitors of human TRPML1 channel | activity change, negative = inhibition, % (concentration not given with the values) | Q9GZU1 | AID 624415 | 390,000 compounds, 0.02% hits | TRPML1-inducible cells, Ca2+ dye fluorescence, FDSS; hits give low values; inhibition of EC80 agonist-evoked calcium signal; in the data active means activity change below about -50%; inconclusive means about -30% to -50%; inactive means above about -30%;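 also: stimulus is agonist 54-4 at its EC80 concentration; % is scaled to controls: 0 for no effect and ±100 for the full control effect; the text of the record puts the active cut at -80%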
#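 Calcium fluorescence in TRPML1-DL cells induced overnight with Tet: a 110 s read after compound pin addition, then a 110 s antagonist read after challenge with 54-4 at 4 uM final (EC80).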
# D2 potentiator: potentiates the human D2 dopamine receptor allosterically; 360,000 compounds, 0.23% hits; DiscoveRx D2 beta-arrestin cells, luminescence, 90 min; 100% = 57 uM dopamine signal; potentiation, % (no concentration beside the values); P14416; active = potentiation of 50% or more; inconclusive = 30% to 50%; inactive = 30% or less;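 also: compound concentration not given in the record; tested on top of an EC20 dose of dopamine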
# Target sequence (P14416 whole entry, looked up): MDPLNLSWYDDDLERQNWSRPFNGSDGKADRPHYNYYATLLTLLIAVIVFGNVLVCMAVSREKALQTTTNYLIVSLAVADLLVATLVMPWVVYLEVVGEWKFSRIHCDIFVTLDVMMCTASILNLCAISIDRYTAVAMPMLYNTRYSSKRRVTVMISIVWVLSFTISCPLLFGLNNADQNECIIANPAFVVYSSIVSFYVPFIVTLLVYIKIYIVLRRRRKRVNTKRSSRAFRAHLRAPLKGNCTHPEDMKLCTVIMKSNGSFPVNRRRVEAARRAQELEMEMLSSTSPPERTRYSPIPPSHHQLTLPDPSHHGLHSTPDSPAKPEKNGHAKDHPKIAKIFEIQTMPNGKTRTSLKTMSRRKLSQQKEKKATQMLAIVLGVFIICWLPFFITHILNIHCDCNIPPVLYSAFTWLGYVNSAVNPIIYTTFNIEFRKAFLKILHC
#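 D2 cells co-treated with compound plus 50 nM dopamine (EC20) for 90 min at 37 deg C to detect potentiation. Beta-arrestin recruitment was read as enzyme-fragment luminescence after 1 h at ambient temperature. Full response was set by 57 uM dopamine.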
# TRPV1 potentiator: enhances activation of the human vanilloid receptor TRPV1; Q8NER1; TRPV1-expressing cells, Fluo-8 calcium influx, capsaicin EC20 potentiation; host cell line not named in the record; control for the full effect not named in the record; potentiation, % at 8.33 µM; 320,000 compounds, 0.02% hits; AID 540277; active means potentiation above 80%; inconclusive means 30% to 80%; inactive means below 30%; also: 0% is about no effect
#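 Cells expressing TRPV1 were dye-loaded with Fluo-8 and read kinetically: 10 s baseline, 3 min after compound (agonist portion), then 2 min after EC20 capsaicin (allosteric enhancer portion). Calcium-bound dye fluorescence at 480/520 nm.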
# CtBP-E1A inh: CtBP/E1A binding inhibition. AlphaScreen GST-E1A/His-CtBP binding, 1536-well; hits give low values; control for the full effect not named in the record. activity change, % (no concentration beside the values). 340,000 compounds, 0.49% hits. AID 651724; in the data active means activity change below about -65%; inconclusive means about -30% to -65%; inactive means above about -30%; also: % is scaled to controls: 0 for no effect and ±100 for the full control effect
#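 Steps: dispense buffer (Tris pH 8.0, NaCl 300 mM, TCEP 1 mM, BSA, Tween 20); add 5X protein mix (GST-E1A, His-CtBP, 125 nM each); pin 23 nL compound; 2 h at 37 °C, dark; add 5X beads (50 ug/mL); 1 h; read.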
# TRPML1 ag: human mucolipin-1 channel agonism; Q9GZU1; TRPML1-expressing cells, Ca2+ dye fluorescence, FDSS; host cell line not named in the record; reference of the full effect not given here; activation, % (test concentration not listed); 410,000 compounds, 0.12% hits; AID 624414; in the data active = activation above about 50%; inconclusive = about 30% to 50%; inactive = below about 30%; also: 0% is about no effect; the text of the record puts the active cut at 80%
#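 Agonist activity was taken from a 110 s kinetic Ca2+ dye read on the FDSS after pinning compounds onto TRPML1-DL cells. The cells were seeded at 1,500/well with Tet inducer, incubated about 16 h, then dye-loaded at room temperature.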
# An asterisk follows results filed as active; · = no result given.
no.	molecule	TRPML1 ag	D2 potentiator	TRPV1 potentiator	TRPML1 blocker	CtBP-E1A inh	Six1-Eya2 inh
1	CC(C)(C)OC(=O)CC1(C#N)c2ccccc2C(Br)=CN1C(=O)c1ccccc1 (stereo unspecified)	8.1	-8	24	-27	6	-3
2	O=C(Nc1ncc(Cc2ccccc2Cl)s1)c1ccc(-c2cccc([N+](=O)[O-])c2)o1	0.5	-8	-2	30	-22	-12
3	Cc1oc(C(=O)Nc2ccc(O)cc2)cc1COc1ccccc1	0.5	7	2	-3	-6	-6
4	CCN(CC(=O)Nc1c(F)cccc1F)C(=O)C(C)SCc1nc2sc(C)c(C)c2c(=O)[nH]1 (stereo unspecified)	0.2	-8	3	7	-1	-1
5	CCOc1ccc(NC(=O)CNC(=O)c2ccc(OC)cc2)cc1	0.0	-6	-8	47	-3	-2
6	CS(=O)(=O)N1CCCC(c2nc(-c3ccc(S(=O)(=O)NCc4ccccc4)cc3)no2)C1 (stereo unspecified)	2.6	-10	10	-21	0	-1
7	O=C(CCn1nc(-c2ccccc2)c2ccccc2c1=O)NCC1CCCO1 (stereo unspecified)	-0.6	-7	3	-8	5	8
8	CCOC(=O)C1CCN(CC(=O)N2CCc3ccccc32)CC1	0.5	-17	19	1	0	7
9	COc1ccc(/C=N/NC(=O)C2CCN(c3ncc(C(F)(F)F)cc3Cl)CC2)cc1	-0.5	-6	-7	-7	-4	1
10	O=C(CCC(NC(=O)OCc1ccccc1)C(=O)OCc1ccccc1)NCC(=O)OCc1ccccc1 (stereo unspecified)	0.4	-6	-7	-8	4	2
11	Cc1ccc(-n2c(Cc3ccccc3)nnc2SCC(=O)NNC(=O)Cc2ccccc2)cc1	0.7	-12	5	-5	-7	-2
12	C=CCNC(=S)N/N=C/c1ccccc1OCCOc1ccccc1	2.4	1	-6	5	-1	6
13	Cc1ccc(OCCN2C(=O)c3ccccc3C2=O)cc1	1.7	1	6	-6	24	22
14	O=C1NC(c2ccccc2)(C(F)(F)F)SC2=CCCCCN12 (stereo unspecified)	-0.5	-9	25	1	-4	0
15	COCCC(=O)N1CCC(Oc2ccc(C(=O)NCCc3cn[nH]c3)cc2)CC1	-0.6	1	2	-11	-19	-2
16	O=C(c1ccco1)N1CCN(C2CC(=O)N(c3ccc4c(c3)OCO4)C2=O)CC1 (stereo unspecified)	-0.5	-4	-3	-21	-3	0
17	N#Cc1ccc(COC(=O)Cn2nnc(-c3ccccc3)n2)cc1	5.3	0	-25	-8	-2	4
18	CC1=CC(=O)C2=C(C)CC[C@@H]3[C@H](OC(=O)[C@H]3C)[C@@H]12	-0.7	9	20	-14	·	-6
19	Cc1ccccc1-c1nnc(-c2ccc(Cl)cc2)o1	0.9	6	4	26	-1	10
20	O=c1ncn(-c2cccc([N+](=O)[O-])c2)c2ccccc12	0.1	3	·	-5	4	4
21	Cc1nn(C)c(C(=O)N/N=C/c2ccccc2)c1[N+](=O)[O-]	-0.5	2	-6	-5	0	-1
22	O=C(c1cccnc1)N1CCN(Cc2cccc(Br)c2)CC1	0.3	-21	-2	-5	-4	0
23	CCC(C)c1ccc(-c2cc(C(=O)OCC(=O)Nc3cc(C)on3)c3ccccc3n2)cc1 (stereo unspecified)	-0.6	24	-2	-1	2	2
24	CCN1CCN(CCOc2ccccc2OCc2ccccc2)CC1	0.6	-18	8	-7	·	-7
25	Cc1ccc(C)c(S(=O)(=O)N2CCCCC2CCNC(=O)C(=O)NC2CC2)c1 (stereo unspecified)	0.0	-4	-3	-9	-3	4
26	CC1Oc2ccc(C#N)cc2N(Cc2ccccc2OC(F)(F)F)C1=O (stereo unspecified)	-0.8	0	·	·	-3	2
27	COc1cc(OC)c(OC)cc1CN(C)CCc1ccccn1	-0.3	-6	-18	-11	0	25
28	CCOc1ccc(CCNC(=O)COC(=O)c2ccccc2O)cc1OCC	1.0	1	0	-16	-5	9
29	CCc1cccc(NC(=O)Nc2ccc3c(c2)OCO3)c1	0.8	-12	-17	-3	-7	-14
30	COc1ccc(N(CC(=O)N2CCc3ccccc32)S(=O)(=O)c2c(C)nn(C)c2C)cc1	0.2	-5	13	2	4	3
31	COc1ccc(NC(=S)NCc2ccco2)cc1	0.1	-10	4	20	-4	-8
32	COc1ccc(/C=C/CN2CCN(Cc3ccc(C)cc3)C(CCO)C2)cc1 (stereo unspecified)	-0.5	-14	18	-5	5	6
33	COc1cnc(-c2ccccn2)nc1Sc1cccc(Cl)c1	0.5	-11	-2	46	-7	1
34	O=C(CSc1ccccn1)N/N=C/c1cccc([N+](=O)[O-])c1	-0.7	-6	-19	-2	14	2
35	O=C(COC(=O)CN1C(=O)c2ccccc2C1=O)Nc1ncc(Cl)cc1Cl	-0.4	12	-8	7	15	5
36	O=C(COc1ccc(NC(=O)c2ccccc2)cc1)c1ccccc1	1.3	-6	-8	-7	-13	0

# Along the list, quoted from above:
# D2 potentiator, compounds 25–36, in order: -4, 0, -6, 1, -12, -5, -10, -14, -11, -6, 12, -6

# (list continues)
no.	molecule	TRPML1 ag	D2 potentiator	TRPV1 potentiator	TRPML1 blocker	CtBP-E1A inh	Six1-Eya2 inh
37	Cc1ccn2c(=O)nc(SCC(=O)NCc3ccccc3)nc2c1	0.5	-3	18	-11	-2	-12
38	Cc1ccc(/C=C/C(=O)N2CCCC(C)C2)cc1 (stereo unspecified)	0.5	-16	-6	17	0	-1
39	CC1CCN(CC(C)CNC(=O)c2cc(-c3ccccn3)nc3ccccc23)CC1 (stereo unspecified)	4.0	-19	20	-11	-4	-2
40	O=C(CSc1nnc(CNC(=O)c2ccc(F)cc2)o1)NCc1ccc2c(c1)OCO2	-0.1	-4	3	4	7	3
41	Cc1ccc(C)c(NC(=S)NCCc2ccc(S(N)(=O)=O)cc2)c1	-0.4	-14	·	17	3	-4
42	CC(C)=NNc1nc2sc3c(c2c(=O)[nH]1)CC(C)(C)OC3	0.1	-2	3	-8	-1	-24
43	O=c1cc2c(=O)oc3cc(O)c(O)oc3c2c(O)c1O	-0.4	-3	-13	-14	-23	-78*
44	O=C1N/C(=N\c2ccccn2)SC1Cc1ccc(Cl)cc1 (stereo unspecified)	-0.5	-1	1	29	-2	-3
45	COc1ccccc1CNC(=O)C(=O)NCC1OCCN1C(=O)c1cccs1 (stereo unspecified)	0.2	-4	1	5	12	11
46	COc1ccccc1OCCC(=O)Nc1cccc(S(=O)(=O)N2CCOCC2)c1	-0.4	1	3	2	·	-1
47	COc1ccc(/C(O)=C2/C(=O)C(=O)N(CCN(C)C)C2c2cccnc2)cc1C (stereo unspecified)	1.8	-6	4	3	0	9
48	Cn1c(=O)c2c(nc(NCc3ccccc3)n2CC(N)=O)n(C)c1=O	-0.7	-11	9	3	·	0
49	CC(C)(C)[C@@H]1C=C(C(=O)O)O[C@H](OCCCCO)C1	-0.6	-18	·	-10	5	4
50	C/C(=N\NC(=O)Cc1cccc2ccccc12)c1ccncc1	0.4	-13	-6	4	0	12
51	CCOC(=O)c1nnn2c1nc(N1CCCCC1)c1ccccc12	1.1	-5	-40	-3	0	1
52	O=C(Cc1ccc(Cl)cc1)Nc1ccncc1	-0.1	-6	-11	27	7	4
53	CCN(CC(=O)NCc1ccc(F)cc1)CC(=O)Nc1ccccc1-c1ccccc1	0.6	8	-8	6	0	-13
54	CCNC(=O)CC1C(=O)N(c2ccc(F)cc2)C(=O)N1CCc1ccc(OC)cc1 (stereo unspecified)	-0.3	-4	6	-10	6	2
55	CC1=NN(c2ccccc2)C(=O)/C1=C/C=C/c1ccc(N(C)C)cc1	2.9	22	3	-13	·	-1
56	CC1CCCN(S(=O)(=O)c2ccc3[nH]c(=O)cc(C(=O)NCCCN4CCCCCC4)c3c2)C1 (stereo unspecified)	-0.7	-7	·	-9	-5	-14
57	C[C@@H]1CN([C@H](C)CO)C(=O)CCCn2cc(nn2)CO[C@H]1CN(C)C(=O)NC1CCCCC1	0.5	-1	·	-6	-15	12
58	Cc1cc(C)nc(SCc2nnc(SCC(=O)Nc3ccccc3C)n2Cc2ccco2)n1	1.4	-4	4	2	-8	6
59	Cn1c(=O)[nH]c2c(c(C(=O)O)nn2C)c1=O	1.6	-2	·	11	-8	11
60	CCOC(=O)CSc1nnc(-c2cccnc2)n1C	-0.1	1	14	-8	17	0

# Reformatted with each value named: two of the compounds above.
31) COc1ccc(NC(=S)NCc2ccco2)cc1
  TRPML1 ag: 0.1
  D2 potentiator: -10
  TRPV1 potentiator: 4
  TRPML1 blocker: 20
  CtBP-E1A inh: -4
  Six1-Eya2 inh: -8
26) CC1Oc2ccc(C#N)cc2N(Cc2ccccc2OC(F)(F)F)C1=O (stereo unspecified)
  TRPML1 ag: -0.8
  D2 potentiator: 0
  TRPV1 potentiator: ·
  TRPML1 blocker: ·
  CtBP-E1A inh: -3
  Six1-Eya2 inh: 2

# The listing picks up, repeating the three entries before the break.
no.	molecule	TRPML1 ag	D2 potentiator	TRPV1 potentiator	TRPML1 blocker	CtBP-E1A inh	Six1-Eya2 inh
58	Cc1cc(C)nc(SCc2nnc(SCC(=O)Nc3ccccc3C)n2Cc2ccco2)n1	1.4	-4	4	2	-8	6
59	Cn1c(=O)[nH]c2c(c(C(=O)O)nn2C)c1=O	1.6	-2	·	11	-8	11
60	CCOC(=O)CSc1nnc(-c2cccnc2)n1C	-0.1	1	14	-8	17	0
61	NC(=O)Nc1ccc(C(=O)OCC(=O)NC2CCCCC2)cc1	-0.3	-5	1	-16	·	2
62	CC1CN(CCCCOc2ccc3ccccc3c2)CC(C)O1 (stereo unspecified)	1.8	-39	11	1	-12	3
63	O=S1(=O)CC/C(=N/Nc2ccc(C(F)(F)F)cn2)c2cc(F)ccc21	2.9	-4	29	15	-7	2
64	CCNC(=O)/C(C#N)=C/c1c(N2CCN(Cc3ccc4c(c3)OCO4)CC2)nc2c(C)cccn2c1=O	0.7	-10	-2	2	6	0
